StopGo RLuc: lowers the Renilla signal of an FMDV 2A StopGo reporter | AID 1745857 | Potency, µM (series often up to 57.5 µM), for the others: top-dose signal change, negative = less light | HEK cells with a luciferase reporter of 2A StopGo recoding | 0.32% of 120,000 active; active means well fitted falling curve with a large enough effect; inconclusive means small, poorly fitted or top-dose-only effect; inactive means no such curve, though single readings can be large or run the other way; further: nearly all actives have a fitted effect of over 55% in size; overnight with compound
StopGo FLuc: lowers the firefly signal of an FMDV 2A StopGo reporter; HEK cells with a luciferase reporter of 2A StopGo recoding; Potency, µM (doses to about 57.5 µM), without a hit: top-dose signal change, negative = less light; 0.23% of 120,000 active; AID 1745856; active = well fitted falling curve with a large enough effect; inconclusive = small, poorly fitted or top-dose-only effect; inactive = no such curve, though single readings can be large or run the other way; further: nearly all actives have a fitted effect of over 60% in size; overnight with compound
* = called active by the depositor; ? = inconclusive; & = joins results of further samples; [ ] = dose if it differs, or a comment. On the % scale 0 is the no-effect control and ±100 the full control effect; potency means the concentration at half of the fitted maximal effect. Only part of the results is shown. The share of hits here may be higher or lower than overall.

SMILES	StopGo RLuc	StopGo FLuc
Cc1ccc(NC(=O)c2cccc3c2C(=O)N(C2CCCCC2)C3)c(C)c1	-11%	-16%
O=C(CN1CCN(C(=O)c2cccc(I)c2)CC1)N1CCCCC1	2%	0%
Cc1cccc(NC(=O)CCNS(=O)(=O)c2cccc3nsnc23)c1C	43%[activator]	0%
COCCNC(=O)CCCN1C(=O)c2ccccc2Sc2ncccc21	193%[activator]	168%[activator]
O=C(Nc1cccc2ccccc12)C1C2CCC3C(CCC21)C3(Cl)Cl (stereo unspecified)	12%	10%
Clc1cccc(/C=N/Nc2ccc(Cl)c(Cl)c2)c1	10%	165%[activator]
Cc1cc(Cl)ccc1OC(C)C(=O)NN (stereo unspecified)	0%	0%
Cc1cccc(CC(=O)NC2CC(=O)N(c3ccc4c(c3)OCCO4)C2)c1 (stereo unspecified)	-11%	-19%
Cc1ccc(Nc2nnc(SCC(=O)Nc3ccnn3C3CCCC3)s2)cc1Cl	?	?
COc1ccc(OC)c(S(=O)(=O)NCCc2sc(-c3cccnc3)nc2C)c1	233%[activator]	-2%
O=C(Nc1cccc(Cl)c1)N1Cc2ccccc2Oc2ncccc21	-4%	53%[activator]
CCOc1ccc(NC(=O)CN2CCN(CC(=O)Nc3ccccc3OCC)CC2)cc1	-10%	-22%
CC(=O)N(CCCNC(=O)c1cc(F)cc2nc(C)c(C)nc12)C(C)C	-9%	-7%
COc1ccc(CNC(=O)COc2cc(O)c3c(=O)cc(-c4ccccc4)oc3c2)cc1	24%	7%
COC(=O)c1ccccc1NC(=O)c1cc(CN2CCCC2)on1	-11%	9%
CCCc1nnc(NC(=O)c2cc(-c3ccc4c(c3)OCCO4)on2)s1	2%	7%
CCN(Cc1ccc(OC)c(OC)c1)C(=O)CCc1ncc(-c2ccccc2)o1	-10%	28%
CCC(Cc1ccccc1)NC(=O)CCS(=O)(=O)c1cc2c(cc1Cl)NC(=O)CO2 (stereo unspecified)	0%	4%
CCCCOC(=O)c1ccc(NC(=O)c2cc(=O)c3cc(C)cc(C)c3o2)cc1	0%	-14%
COc1ccc(-c2nn3c(-c4ccc(C(C)(C)C)cc4)nnc3s2)cc1OC	14%	0%
O=C(O)/C(=C/c1cccs1)c1cccs1	7%	22%
O=C(NCc1cccc(C(F)(F)F)c1)c1ccccc1OC(F)F	7%	-5%
CCc1cc(CC)n(-c2nc3c(c(=O)n(CC)c(=O)n3C)n2Cc2ccccc2F)n1	-5%	1%
O=C(CSc1nc2ccsc2c(=O)n1-c1ccc(Br)cc1)NCc1ccc(Cl)cc1	-1%	-11%
COC(=O)c1cc(NC(=O)Cn2ncc3c([nH]c4ccccc43)c2=O)cc(C(=O)OC)c1	-4%	-2%
Cc1c(-n2nnnc2SC(C)C)c(=O)n(-c2ccccc2)n1C	-4%	-8%
O=S1(=O)N(Cc2ccccc2Cl)CCCN1Cc1ccccc1Cl	218%[activator]	17%
COc1ccc(NC(=O)COc2ccc(Cl)cc2Cl)c2cccnc12	?	2.5µM*
CC(=O)c1ccc(NC(=O)Cn2nc(C(F)(F)F)c3c2CCC3)cc1	3%	74%[activator]
COc1ccc(C(=O)NCc2cn3ccc(C)cc3n2)cc1	-6%	-14%
Cc1ccc(NC(=O)NCCCNc2ccccc2)cc1NC(=O)NCCCNc1ccccc1	8%	2%
NCCc1nc2cccnc2n1-c1ccccc1	-4%	-19%
Cc1ccc2c(c1)-c1c(cnn1CC(=O)N1CCN(c3cccc(C(F)(F)F)c3)CC1)CO2	-7%&-16%	-16%&-19%
COc1ccc(OCC(=O)Nc2ccc(-c3nc4cc(Cl)ccc4o3)cc2)cc1	-1%&-14%	125%&0%[activator]
Cc1ccc2c(c1)c1c(c(=O)n(-c3cccc(Cl)c3)c(=O)n1CC(=O)NCC1CCCO1)n2C (stereo unspecified)	-6%	-13%
COc1ccccc1CNC(=O)CCc1c(C)c2cc3c(C)coc3cc2oc1=O	-17%	-8%
Cc1cccc(N=C2NN=C(c3c[nH]c(C(=O)N4CCCC4)c3)CS2)c1	85%[activator]	120%[activator]
CN1CCN(CCCNC(=O)Cc2ccc(C(F)(F)F)cc2)CC1	3%	-14%
O=C(NCCNc1cnccn1)c1cnccn1	4%	11%
CCc1cccc(C)c1NS(=O)(=O)c1ccc(-c2cnc(C3CC3)o2)cc1	?	?
C=C(Cl)CN1CCC(CNC(C)=O)CC1	9%	4%
COc1ccc(S(=O)(=O)NCCc2sc(-c3cccnc3)nc2C)cc1OC	0%	1%
Cc1ccc(CNC(=O)c2ccc(CS(=O)(=O)Cc3ccc(F)cc3)o2)cc1	-13%	-11%
Cc1cc(NC(=O)c2ccc(-c3ccc(F)cc3)o2)no1	-9%[1.06 µM]	137%[activator]
CC(=O)Nc1ccc(Nc2c(CCC(C)C)c(C)c(C#N)c3nc4ccccc4n23)cc1	-12%	-11%
CN1C(=O)c2ccccc2Sc2ccc(NC(=O)N3CCN(c4ccccc4)CC3)cc21	-1%	31%[activator]
CC(Oc1ccc(/C=C(\C#N)C(N)=O)cc1)c1ccccc1 (stereo unspecified)	-2%	47%[activator]
CCN(CC(=O)NCc1cccs1)C(=O)c1cccc(S(=O)(=O)N(C)c2ccc(C)cc2)c1	65%[activator]	-11%
Cc1cccc(-n2nnnc2SCC(=O)c2ccc(Br)s2)c1	9%	47%[activator]
CCN(CC)CCNC(=O)c1nc2ccccc2c(=O)[nH]1	-3%	-4%
Cc1ccc(-c2nc(CN3CCN(C(=O)C4CCCO4)CC3)co2)cc1 (stereo unspecified)	?	-24%
CC(C)(C)C1CCc2oc3ccc(NS(=O)(=O)c4cc(Cl)ccc4Cl)cc3c2C1 (stereo unspecified)	0%	12%
CC(C)CCNc1nc2c(c(=O)[nH]c(=O)n2C)n1C(C)C	9%	1%
CN(C)C(=O)c1cc(Br)c(Br)s1	11%	10%
CCOc1ccc(Br)cc1S(=O)(=O)Nc1ccc(-c2cn3ccc(C)nc3n2)cc1	83%[activator]	2%
COc1ccc(-c2noc(CSc3nnc(-c4ccncc4)n3-c3ccccc3)n2)cc1	?	-18%
Cc1ccc(CNC(=O)Cn2c3ncccc3c(=O)n2-c2ccc(C)cc2)cc1	-2%	-10%
Fc1ccccc1N1NC2(CCCCC2)NC1=S	0%	64%[activator]
Cc1ccc(-c2noc(CCC(=O)N3CCc4sccc4C3c3cccs3)n2)cc1 (stereo unspecified)	24%	25%
O=C(/C=C/c1ccccc1C(F)(F)F)c1ccc(N2CCCCCC2)cc1	21%	140%[activator]

6 compounds out of the list, ordered by SMILES length, rising:
SMILES	StopGo RLuc	StopGo FLuc
Fc1ccccc1N1NC2(CCCCC2)NC1=S	0%	64%[activator]
Cc1cccc(-n2nnnc2SCC(=O)c2ccc(Br)s2)c1	9%	47%[activator]
CC(Oc1ccc(/C=C(\C#N)C(N)=O)cc1)c1ccccc1 (stereo unspecified)	-2%	47%[activator]
CN1C(=O)c2ccccc2Sc2ccc(NC(=O)N3CCN(c4ccccc4)CC3)cc21	-1%	31%[activator]
CC(C)(C)C1CCc2oc3ccc(NS(=O)(=O)c4cc(Cl)ccc4Cl)cc3c2C1 (stereo unspecified)	0%	12%
CC(=O)Nc1ccc(Nc2c(CCC(C)C)c(C)c(C#N)c3nc4ccccc4n23)cc1	-12%	-11%

Two entries picked at random from the list so far, as already listed:
SMILES	StopGo RLuc	StopGo FLuc
Cc1cccc(-n2nnnc2SCC(=O)c2ccc(Br)s2)c1	9%	47%[activator]
CN1C(=O)c2ccccc2Sc2ccc(NC(=O)N3CCN(c4ccccc4)CC3)cc21	-1%	31%[activator]

(continued)
SMILES	StopGo RLuc	StopGo FLuc
CCCCn1nc(C(=O)Nc2nc3ccc(OCC)cc3s2)c2ccccc2c1=O	1%	9%
CCC(=O)N1c2ccccc2C(C)(c2ccccc2)CC1(C)C (stereo unspecified)	-4%	-5%
O=C(c1cc(C2CC2)nc2ccccc12)N1CCN(Cc2ccccc2)CC1	25%	51%[activator]
COc1cc(Cl)c(C)cc1NC(=O)c1cnc2c(-c3cccc(C)c3)c(C)nn2c1C	-16%	-15%
CC(C)c1ccccc1NC(=O)CN(c1ccccc1F)S(=O)(=O)c1ccccc1	26%	-23%
COc1cccc(C(=O)Nc2ccc(O)c(-c3nc4ccccc4o3)c2)c1	-14%	-9%
CC(=O)N1CCC2(CC1)OC(=O)C(C)=C2C(=O)NCc1ccc(Cl)cc1	-8%	-19%
O=C(CSc1nc2c([nH]c3ccccc32)c(=O)n1-c1cccc(C(F)(F)F)c1)N1CCc2ccccc21	4%	10%
Cc1ccc(-c2cnc(-c3ccccc3C(=O)NC(C)C)o2)cc1	21%	148%[activator]
CC(C)=CCC/C(C)=C/CO	-4%	-1%[11.5 µM]
CC(C)(C)c1ccc(-c2cc3ccccn3c2)cc1	6%[1.06 µM]	140%[activator]
Cc1cc(NC(=O)C(C)SCC(=O)Nc2ccc(C)c(C)c2)no1 (stereo unspecified)	-12%	13%
CCCOc1ccc(-c2nc(C#N)c(N3CCN(CC)CC3)o2)cc1	-5%	2%
O=C1CSc2ccc(C(=O)OCCOc3ccccc3)cc2N1	25%	201%[activator]
CCC1CCC(NC(=O)c2cccnc2)CC1 (stereo unspecified)	-14%	136%[activator]
CCCN(C(=O)c1ccc(OC(F)(F)F)cc1)c1c(N)n(Cc2ccccc2)c(=O)[nH]c1=O	20%	-2%
CC(=O)Nc1ccc(N2C(=O)C(=O)/C(=C(/O)c3ccccc3)C2c2ccccc2F)cc1 (stereo unspecified)	20%	31%
CCc1ccc(S(=O)(=O)c2cn(C)c3ccc(C)cc3c2=O)cc1	9%	10%
O=C1/C(=C/c2ccc(F)c(Br)c2)Cc2ccccc21	25%	37%[activator]
CCCCn1c(N2CCNCC2)nc2c1c(=O)[nH]c(=O)n2C	-7%	6%

Full records, looked up by structure. Order of screens: StopGo RLuc, StopGo FLuc
O=C(CSc1nc2c([nH]c3ccccc32)c(=O)n1-c1cccc(C(F)(F)F)c1)N1CCc2ccccc21 across the screens: 4%, 10%
CCCCn1c(N2CCNCC2)nc2c1c(=O)[nH]c(=O)n2C across the screens: -7%, 6%

More results follow.
SMILES	StopGo RLuc	StopGo FLuc
NC(=O)CSS(=O)(=O)O	5%	24%
CCOc1ccc(OCC(=O)NCCS(=O)(=O)N2CCN(c3ccc(OC)cc3)CC2)cc1	-5%	-13%
CN1CCN(c2oc(-c3ccc(S(=O)(=O)N4CCCCCC4)cc3)nc2C#N)CC1	44%[activator]	-5%
C/C=C/Cn1c(N2CCCCCC2)nc2c1c(=O)[nH]c(=O)n2C	1%	6%
CCOC(=O)c1c(NC(=O)COc2cccc(C(F)(F)F)c2)sc2c1CCCCC2	-12%	11%
O=C(O)c1sc(C(=O)O)c(OCCO)c1OCCO	-3%	10%
CCCc1cc(C(=O)O)sc1C	-5%	-3%
CN(CC(=O)N1CCc2ccccc2C1)S(=O)(=O)c1ccc(F)cc1	4%	0%
Cc1cc2ccccc2n1-c1ccc(C(=O)N2CCC(C(=O)NCc3ccc(Cl)cc3)CC2)s1	?	25µM*
CCN(CC)S(=O)(=O)c1ccc(Cl)c(C(=O)N2CCCC2C(=O)O)c1 (stereo unspecified)	0%	7%
Cc1ccc(C(C)NC(=O)Nc2cccc(Cl)c2)c(C)c1 (stereo unspecified)	25%	40%[activator]
COCCn1c(C)cc(O)c(C(c2ccccc2OC)N2CCN(c3ccccc3)CC2)c1=O (stereo unspecified)	-13%	-24%
Oc1ccc2[nH]cc(CCNC(c3ccccc3)(c3ccccc3)c3ccccc3)c2c1	-15%	-2%
Cc1ccc(C)c(NC(=O)Cn2cnc3nc4c(cc3c2=O)CCCC4)c1	-3%	-18%
CC(C)CCNC(=O)c1ccc2c(c1)N(Cc1cccc(Cl)c1)C(=O)c1ccccc1S2	-1%	-8%
CCOC(=O)c1c(C)sc2c1OC(N)=C(C#N)C21C(=O)N(C)c2ccccc21 (stereo unspecified)	11%	-26%
COc1cccc(C(=O)Nc2c(C(=O)c3ccc(F)cc3)oc3ccccc23)c1	-16%	-10%
CC1CCCC(NC(=O)/C(C#N)=C\c2ccccc2)C1C (stereo unspecified)	18%	43%[activator]
COc1ccc(NCc2cc3ccc(OC)cc3n(CC(=O)Nc3cc(Cl)ccc3C)c2=O)cc1	-3%	-7%
O=C(NC1CCCC1)c1cc(-c2cccs2)on1	157%[activator]	272%[activator]
COc1cccc2[nH]c(C(=O)NCCCN(C)C)cc12	-5%	-5%
Cc1c(Cl)cccc1NC(C)C(=O)Nc1ccc(Cl)cn1 (stereo unspecified)	6%	16%
Cc1ccc(NS(=O)(=O)c2cc(-c3ccno3)oc2C)c(C)c1	200%[activator]	9%
Cc1ccc(Cl)cc1N1CCN(C(=O)c2cn(C)c3ccc(S(=O)(=O)N4CCC(C)CC4)cc3c2=O)CC1	-1%	6%
CN1CCc2c(sc3c2C(=O)NC(c2ccc(OC(=O)c4ccc(C(C)(C)C)cc4)cc2)N3)C1 (stereo unspecified)	-2%	0%
COc1cc(OC)c(NC(C)C(=O)N(C)Cc2cccc(F)c2)cc1Cl (stereo unspecified)	6%	0%
Cc1oc(-c2cccs2)nc1CC(=O)N(Cc1ccc(C(F)(F)F)cc1)C1CC1	29%	18%
COc1cccc(CNC(=O)C(NS(=O)(=O)c2ccc3c(c2)CCN3C(C)=O)C(C)C)c1 (stereo unspecified)	-10%	-17%
Cc1cccc(OCC(=O)Nc2ccc3oc(-c4cccnc4)nc3c2)c1	5%	73%[activator]
N#C/C(=C\c1ccc(Cl)cc1)C(=O)NCC1CCCO1 (stereo unspecified)	11%	-4%
COc1nc(C(=O)NCCC(=O)N2CCCCC2)cc2ccccc12	28%	168%[activator]
O=S(=O)(CCN1CCOC2CCCCC21)c1ccccc1 (stereo unspecified)	-2%	-9%
COC(=O)c1cn(CC(=O)Nc2ccc(C)cc2)c2ccccc12	-2%	89%[activator]
CCc1ccc(C2SCC(=O)Nc3n[nH]c(C)c32)cc1 (stereo unspecified)	3%	10%

Assay outcomes (PubChem BioAssay)
